SARS PLpro yeast = qHTS of Yeast-based Assay for SARS-CoV PLP. AID 485353, 2010. 330,000 compounds, 0.19% hits. S. cerevisiae expressing SARS-CoV PLpro, growth rescue; control for the full effect not named in the record. Potency, µM (titrated, usually from 32.9 µM), for the others: at the highest dose activity, positive = growth rescue; note: 0% is about no effect; nearly all actives have a fitted effect of over 55% in size; growth read by luminescence after 48 h
Marburg entry inh = qHTS for inhibitors of binding or entry into cells for Marburg Virus | Marburg virus pseudotyped entry inhibition, cell reporter; control for the full effect not named in the record; about a third of the inactives were read at about 46 µM | 300,000 compounds, 1.8% hits | Potency, µM (highest dose often 37.8 µM), inactives show at the top dose activity change, negative = inhibition, most hits filed as inhibitors; active = well fitted inhibition curve with a large enough effect; inconclusive = small, poorly fitted or top-dose-only effect, or effect the other way; inactive = flat fitted curve, though single readings scatter; tested in HEK293 cells; about a fifth of its hits are not listed in these tables; note: % is set by controls: 0 for no effect and ±100 for the full control effect; luciferase read-out
RE007 growth inh = qHTS Assay for Inhibitors of the HIV-1 protein Vpr; AID 651644, 2012; 360,000 compounds, 0.21% hits; S. pombe RE007 Vpr strain, BacTiter-Glo ATP luminescence, 24 h; control for the full effect not named in the record; Potency, µM (titrated, usually from 92.2 µM), for inactives: at the highest dose activity change, negative = less growth; active = well fitted falling curve with a large enough effect; inconclusive = small, poorly fitted or top-dose-only effect; inactive = no such curve, though single readings can be large or run the other way;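 note: % is set by controls: 0 for no effect and ±100 for the full control effect; nearly all actives have a fitted effect of over 50% in size; the assay follows cell death caused by Vpr and the record does not say whether a fall means rescue or toxicity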
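Fission yeast RE007 carrying one integrated HIV-1 vpr copy, seeded at OD 0.01 in PMG+AL medium with 23 nL pinned compound. Grown 24 h at 30 degrees; viability read by BacTiter-Glo luminescence after 5 min.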
NS1 function inh = qHTS Assay for Inhibitors of Influenza NS1 Protein Function; S. cerevisiae slowed by influenza A NS1, growth recovery by OD600; Potency, µM (titrated, usually from 46.1 µM), without a hit: at the top dose activity, positive = more growth; 270,000 compounds, 0.4% hits; note: actives are rising curves; nearly all actives have a fitted effect of over 50% in size
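S. cerevisiae expressing influenza A NS1, grown in glucose, washed, then diluted 1:100 into pH 6.0 -URA galactose medium with 23 nl compound. Growth recovery read as OD600; NS1-free strain serves as control.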
Lassa entry inh = qHTS for Inhibitors of binding or entry into cells for Lassa Virus; Lassa virus pseudotype entry inhibition, cell reporter; control for the full effect not named in the record; Potency, µM (highest dose often 37.9 µM), inactives show top-dose activity change, negative = inhibition, hits mostly inhibitors; 300,000 compounds, 1.2% hits; AID 540256, 2011; active means well fitted inhibition curve with a large enough effect; inconclusive means small, poorly fitted or top-dose-only effect, or effect the other way; inactive means flat fitted curve, though single readings scatter; tested in HEK293 cells; note: % is set by controls: 0 for no effect and ±100 for the full control effect; nearly all actives have a fitted effect of over 50% in size; luciferase read-out
Cruzain inh noDet = qHTS Assay for Promiscuous and Specific Inhibitors of Cruzain (without detergent) | purified cruzain, Z-FR-AMC fluorescence, no detergent | Potency, µM, for the others: max response, negative = inhibition, usual class: inhibitors | 200,000 compounds, 2.3% hits | AID 1476, 2009; active = well fitted curve in the direction sought with a large enough effect; inconclusive = small, poorly fitted or top-dose-only effect, or another doubt; inactive = no such curve, though single readings can be large; an effect the other way counts as inactive or inconclusive;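 note: plate controls were enzyme without inhibitor for no effect and buffer without enzyme for full effect; nearly all actives have a fitted effect of over 40% in size; top concentration of the series not given in the record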
Target sequence (P25779 123-467 limits assumed): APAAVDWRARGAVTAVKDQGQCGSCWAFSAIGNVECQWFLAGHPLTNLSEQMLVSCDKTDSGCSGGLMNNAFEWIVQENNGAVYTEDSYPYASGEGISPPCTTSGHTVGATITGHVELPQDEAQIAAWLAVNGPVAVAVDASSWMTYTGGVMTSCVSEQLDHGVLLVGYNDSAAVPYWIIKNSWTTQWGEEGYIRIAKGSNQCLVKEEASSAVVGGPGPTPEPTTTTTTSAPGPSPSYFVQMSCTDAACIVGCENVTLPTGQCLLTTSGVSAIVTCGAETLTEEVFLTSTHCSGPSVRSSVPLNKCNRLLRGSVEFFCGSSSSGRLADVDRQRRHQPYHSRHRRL
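Detergent-free condition (0.00005% Triton X-100) in acetate buffer pH 5.5 with DTT. 1.5 nM enzyme and compound were pre-mixed 15 min, then 2 uM Z-FR-AMC substrate added; reaction progress from fluorescence change between first and third reads (60 s).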
StopGo reporter = High Throughput Screening for Foot and Mouth Disease Virus Antivirals; human cells with a luciferase reporter of 2A StopGo recoding; control for the full effect not named in the record; 410,000 compounds, 1.2% hits; AID 1159524, 2015; Potency, µM (titrated, usually from 57.9 µM), without a hit: at the top dose signal change, negative = less light; active = well fitted falling curve with a large enough effect; inconclusive = small, poorly fitted or top-dose-only effect; inactive = no such curve, though single readings can be large or run the other way; tested in HEK293T cells; note: % is set by controls: 0 for no effect and ±100 for the full control effect; nearly all actives have a fitted effect of over 45% in size; luciferase light after 4 h
Cruzain Triton = qHTS Assay for Promiscuous and Specific Inhibitors of Cruzain (with detergent); purified cruzain, Z-FR-AMC fluorescence, 0.01% Triton; Cruzipain (Trypanosoma cruzi), P25779; AID 1478, 2009; 200,000 compounds, 0.43% hits; Potency, µM, for the others: max response, negative = inhibition, hits mostly inhibitors; active = well fitted curve in the direction sought with a large enough effect; inconclusive = small, poorly fitted or top-dose-only effect, or another doubt; inactive = no such curve, though single readings can be large; an effect the other way counts as inactive or inconclusive;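 note: plate controls were neutral wells for no effect and buffer without enzyme for full effect; nearly all actives have a fitted effect of over 40% in size; top concentration of the series not given in the record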
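Cruzain (1.5 nM) preincubated 15 min at RT with compound in 100 mM sodium acetate pH 5.5, 5 mM DTT, 0.01% Triton X-100. Reaction started with 2 uM Z-FR-AMC; AMC fluorescence (ex 360/em 450 nm) change over 60 s gave rate.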
* = called active by the depositor; ? = inconclusive; / = not tested or not shown; & = joins results of further samples; [ ] = remark or other dose. Unless noted, calls come from the whole dose curve; as a rule, active means well fitted rising curve with a large enough effect; inconclusive means small, poorly fitted or top-dose-only effect; inactive means no such curve, though single readings can be large or run the other way. Potency is the fitted concentration of half-maximal effect.

cpd	SMILES	SARS PLpro yeast	Marburg entry inh	RE007 growth inh	NS1 function inh
1	COc1cccc(NC(=O)Nc2ccccc2C(N)=O)c1	2%	?	-16%	/
2	O=C(CSc1ccccc1)Nc1ccc(Cl)c(S(=O)(=O)N2CCOCC2)c1	3%	?	11%	/
3	COc1ccccc1Nc1c2c(nc3ccc(NC(=O)/C=C/c4cc(OC)c(OC)c(OC)c4)cc13)CCCC2	/	?	/	/
4	COc1ccc(-c2[nH]ncc2CN2CCN(C(=O)c3ccco3)CC2)cc1F	-1%	?	-9%	3%
5	Cc1ccccc1C(=O)NC1CCN(Cc2ccccc2)CC1	0%	-19%[46.1 µM]	-26%	2%
6	COc1ccc(OC)c(S(=O)(=O)Nc2ccc3c(c2)N(C(C)=O)CCC3)c1	8%	-4%	6%	/
7	COc1ccc(C)cc1S(=O)(=O)N1CCN(S(=O)(=O)c2cc(C)ccc2OC)CC1	5%	-9%&-9%	-27%	-49%
8	CCC1CCCCN1C(=O)CSc1nnc(-c2ccc3c(c2)OCCO3)o1 (stereo not given)	0%	?	6%	-39%
9	Cc1ccc(CNC(=O)c2ccc3c(c2)nc(C)n3-c2cc(C)cc(C)c2)cc1	/	/	/	/
10	O=S(=O)(Nc1ccc(-c2ccc3nncn3n2)cc1)c1ccccc1Cl	-1%	4%	3%	/
11	C=CCOC(=O)C1=C(C)OC(N)=C(C#N)[C@@]12C(=O)N(CC(N)=O)c1ccccc12	2%	-1%&-1%	-4%	2%
12	CCOC(=O)c1c(-c2ccccc2)oc2cc(CN(C)C)c(O)c(CN(C)C)c12	/	?	9%	/
13	COc1ccccc1NC(=O)CCc1c(C)nc2c(-c3ccc(F)cc3)c(C)nn2c1C	2%	?	9%	-3%
14	NC(=O)COC(=O)c1cc(-c2ccco2)nc2ccccc12	0%	8%[46.1 µM]	1%	-3%
15	CCN(CC)S(=O)(=O)c1cc([N+](=O)[O-])ccc1NNC(=O)Nc1ccccc1	?	-5%	15%	-5%

cpd	Lassa entry inh	Cruzain inh noDet	StopGo reporter	Cruzain Triton
1	11%[46.1 µM]	/	32%[activator]	/
2	?	/	2%	/
3	?	-5%	?	-21%
4	?	/	-21%	/
5	-5%	/	-10%	/
6	6%[46.1 µM]	/	47%[activator]	/
7	1%	?	-17%	-1.1%
8	7%	-6%	-22%	-4.1%
9	15%[46.1 µM]	7%	-15%	-0.9%
10	-22%	/	39%[activator]	/
11	-3%	12%	-1%	4.2%
12	?	/	6%	/
13	16%	/	?	/
14	12%[46.1 µM]	/	-25%	/
15	-2%	-17%	5%	-5.0%

(continued)
cpd	SMILES	SARS PLpro yeast	Marburg entry inh	RE007 growth inh	NS1 function inh
16	O=C1N(c2cccc(Cl)c2)C(c2ccc(Cl)cc2)N2CCCN12 (stereo not given)	13%	-8%	-1%	-11%
17	CCN(C(=O)COC(=O)/C=C/c1c(C)nn(-c2ccccc2)c1C)C1CCS(=O)(=O)C1 (stereo not given)	-2%	12%[46.1 µM]	-2%	-9%
18	Cc1nnc(NC(=O)CSc2nnc(CC(=O)Nc3ccccc3F)n2C)s1	-1%	-7%[46.1 µM]	-6%	2%
19	CN(C)CCCN(C(=O)c1ccc(S(=O)(=O)N2CCCCCC2)cc1)c1nc2ccc(F)cc2s1	?	?	-11%	0%
20	CC(=O)c1ccc(NC(=O)CCCCCn2nnc3ccccc3c2=O)cc1	2%	/	3%	?
21	COC(=O)c1ccccc1NC(=O)c1cc(-c2ccc(C)cc2)on1	?	4%	0%	-2%
22	CC(C)c1ccc(NC(=O)C2CCC(CNS(=O)(=O)c3ccc4c(c3)CCCC(=O)N4)CC2)cc1 (stereo not given)	/	/	/	/
23	Cc1nn(C(C)C(=O)N2CCCCC2)c(=O)c2c1sc1ccccc12 (stereo not given)	12%	2%	-4%	1%
24	CCC(=O)c1ccc(OCC(=O)OCC(=O)NC2CCCC2)cc1	5%	?	23%	/
25	S=c1[nH]nc(-c2ccco2)n1/N=C/C=C/c1ccco1	-1%	-7%	-2%	3%
26	Cc1nc(N2CCCCCC2)c2ccccc2n1	?	/	-15%	-7%
27	O=C(CCn1cnc2onc(-c3ccc(F)cc3)c2c1=O)N1CCN(c2ccccc2F)CC1	/	/	/	/
28	CCOC(=O)c1c(N)sc(C(=O)N2CCCC2)c1C	-5%	0%[46.1 µM]	13%	-3%
29	O=C(CNC(=O)c1cccs1)NCCc1ccco1	-6%	?	-9%	/
30	CC(C)NC(=O)CN1C(=O)CSc2ccc(S(=O)(=O)N3CCCC3)cc21	4%	12%[46.1 µM]	11%	-10%

cpd	Lassa entry inh	Cruzain inh noDet	StopGo reporter	Cruzain Triton
16	2%	1%	-25%	-9.5%
17	4%[46.1 µM]	/	-7%	/
18	1%[46.1 µM]	/	-6%	/
19	?	/	-18%	/
20	/	/	-8%	/
21	6%	0%	22%	1.6%
22	?	18%	25µM*	-2.4%
23	20%	-5%	0%	0.0%
24	2%[46.1 µM]	/	-8%	/
25	-10%	-23%	-19%	-11%
26	/	/	-30%	/
27	9%[46.1 µM]	11%	-6%	-1.5%
28	2%	1%	0%	0.1%
29	-1%	/	16%	/
30	18%[46.1 µM]	/	-5%	/

Continuation.
cpd	SMILES	SARS PLpro yeast	Marburg entry inh	RE007 growth inh	NS1 function inh
31	Cc1ccc(S(=O)(=O)N2CCCCC2)cc1NC(=O)CNCc1ccco1	0%	/	9%	0%
32	CCc1ccc(/C=C\C(=O)N2CCc3ccccc3C2)cc1	-21%	18%	-20%	-34%
33	Cc1ccc(C(=O)N2CCN(c3nc4ccccc4n3C)CC2)cc1	0%	/	-4%	2%
34	COc1ccc(-c2nc3c(c(SCC(=O)Nc4cc(C)cc(C)c4)n2)Cc2c(CO)cnc(C)c2O3)cc1	/	/	/	/
35	CCOc1ccc(C(=O)CCC(=O)N(CC)CC(=O)NCc2cccs2)cc1	8%	-18%	-9%	/
36	O=C(NC1CCSC1=O)C1CC(=O)N(c2ccc(F)cc2)C1 (stereo not given)	2%	3%[46.1 µM]	-4%	10%
37	Cc1ccc(/C(O)=C2/C(=O)C(=O)N(CC(=O)O)C2c2ccc([N+](=O)[O-])cc2)cc1 (stereo not given)	-10%	-2%[46.1 µM]	-1%	-4%
38	C/C(=N\N1CCCCCC1)c1c(O)n(-c2ccccc2)c(=O)[nH]c1=O	-10%	-16%	7%	6%
39	O=C(CCn1c(=O)[nH]c2ccsc2c1=O)N1CCN(c2cccc(Cl)c2)CC1	-5%	?	5%	6%
40	COc1ccc(C(=O)COC(=O)c2cc(=O)c3ccccc3o2)cc1	-4%	16%[46.1 µM]	4%	/
41	Cc1cc(C)cc(-c2nnc(SCC(=O)Nc3cc(C)on3)o2)c1	0%	0%[46.1 µM]	19%	/
42	CNC(=O)c1ccc(-c2ccc(OC)cc2)s1	-15%	?	0%	-121%
43	O=C(Nc1ncc(Br)s1)C1CCCN1S(=O)(=O)c1cccc2cccnc12 (stereo not given)	9%	-5%	17%	7%
44	CCC(=O)Nc1ccc(C(=O)N/N=C/c2cc(Br)c(OC)cc2OC)cc1	-1%	?	-7%	1%
45	COc1ccc(C(=O)OCC(=O)c2c(N)n(C)c(=O)n(C)c2=O)cc1OC	1%	-9%[46.1 µM]	3%	1%
46	O=C(CN1CCc2ccccc2C1)NCc1ccco1	-1%	?	-6%	?
47	CCn1c(SCC(=O)N2CCc3ccccc3C2)nc2sc(C)c(C)c2c1=O	-10%	-1%	-11%	0%
48	COc1ccc(N(CC(=O)N2CCc3ccccc3C2)S(=O)(=O)c2ccc(C)cc2)cc1Cl	/	-12%[46.1 µM]	/	/

cpd	Lassa entry inh	Cruzain inh noDet	StopGo reporter	Cruzain Triton
31	/	/	6%	/
32	7%	5%	22%	-2.5%
33	/	/	?	/
34	8%[46.1 µM]	15%	-11%	-0.1%
35	0%	/	37%[activator]	/
36	20%[46.1 µM]	/	25%	/
37	17%[46.1 µM]	/	-16%	/
38	?	3%	-26%	-1.4%
39	8%	11%	?	-1.0%
40	19%[46.1 µM]	/	-10%	/
41	27%	/	-25%	/
42	-10%	?	25%	-13%
43	9%	-12%	-21%	2.8%
44	4%	6%	-24%	-9.3%
45	9%	/	-6%	/
46	8%	-8%	5%	-1.0%
47	10%	11%	0%	-6.9%
48	?	-9%	33%[activator]	-6.1%

Only Cruzain Triton and NS1 function inh, for some of the entries so far:
No.	mol	Cruzain Triton	NS1 function inh
31	Cc1ccc(S(=O)(=O)N2CCCCC2)cc1NC(=O)CNCc1ccco1	/	0%
32	CCc1ccc(/C=C\C(=O)N2CCc3ccccc3C2)cc1	-2.5%	-34%

Of the compounds above, these contain a nitro group on carbon:
cpd	SMILES	SARS PLpro yeast	Marburg entry inh	RE007 growth inh	NS1 function inh
15	CCN(CC)S(=O)(=O)c1cc([N+](=O)[O-])ccc1NNC(=O)Nc1ccccc1	?	-5%	15%	-5%
37	Cc1ccc(/C(O)=C2/C(=O)C(=O)N(CC(=O)O)C2c2ccc([N+](=O)[O-])cc2)cc1 (stereo not given)	-10%	-2%[46.1 µM]	-1%	-4%

cpd	Lassa entry inh	Cruzain inh noDet	StopGo reporter	Cruzain Triton
15	-2%	-17%	5%	-5.0%
37	17%[46.1 µM]	/	-16%	/

Source: PubChem
